# High-throughput results: PubChem, National Center for Advancing Translational Sciences (NCATS)
# TRPML1 blocker: qHTS for Inhibitors of the Human Mucolipin Transient Receptor Potential 1 (TRPML1) | Mucolipin-1 (Homo sapiens), Q9GZU1 | TRPML1-inducible cells, Ca2+ dye fluorescence, FDSS; hits give low values; inhibition of EC80 agonist-evoked calcium signal | activity change, negative = inhibition, % (test concentration not listed) | hit rate 0.02% among 390,000 | AID 624415, 2012; in the data active means activity change below about -50%; inconclusive means about -30% to -50%; inactive means above about -30%;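 note: stimulus is agonist 54-4 at its EC80 concentration; % is set by controls: 0 for no effect and ±100 for the full control effect; compound concentration not given in the record; the text of the record puts the active cut at -80%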
#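 Tet-induced TRPML1-DL cells loaded with Ca8 no-wash calcium dye were read kinetically on FDSS. Compound addition was followed by EC80 agonist 54-4 (4 uM final); inhibition was read over 110 s.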
# TRPML1 agonist: qHTS for Agonists of the Human Mucolipin Transient Receptor Potential 1 (TRPML1); hit rate 0.12% among 410,000; activation, % (concentration not given with the values); AID 624414, 2012; TRPML1-expressing cells, Ca2+ dye fluorescence, FDSS; host cell line not named in the record; reference of the full effect not given here; in the data active = activation above about 50%; inconclusive = about 30% to 50%; inactive = below about 30%; note: 0% is about no effect; the text of the record puts the active cut at 80%
#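 TRPML1-DL cells, Tet-induced overnight (~16 h, 37 degrees C), loaded 45-90 min at room temperature with Ca8 no-wash calcium dye plus quencher. FDSS fluorescence: 10 s baseline, compound pin-transfer, 110 s agonist read, then EC80 54-4 (4uM final) and 110 s antagonist read.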
# D2 ag: Beta-Arrestin HTS for Positive Allosteric Modulators of the Human D2 Dopamine Receptor: Agonists | D(2) dopamine receptor (Homo sapiens), P14416 | DiscoveRx PathHunter D2 beta-arrestin, luminescence, 90 min; 100% = 57 uM dopamine signal | activation, % (test concentration not listed) | hit rate 0.084% among 360,000; in the data active = activation above about 40%; inconclusive = about 15% to 40%; inactive = below about 15%; note: compound concentration not given in the record; the text of the record calls up to 30% inactive
#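 DiscoveRx PathHunter D2 beta-arrestin cells (2,100/well) attached overnight, then compound-stimulated 90 min at 37 C in HBSS/10 mM HEPES/0.1% Tween-20 buffer; beta-galactosidase complementation read by luminescence after 1 h at ambient temperature. Dopamine 57 uM final (EC100) as control.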
# PINK1 modulator: A Quantitative High throughput Screen to Identify Chemical Modulators of PINK1 Expression; Potency, µM (titrated, usually from 76.6 µM), for the others: at the highest dose activation (PINK1 increase), actives largely listed as activators; PINK1 immunofluorescence, high-content cytometry, 24 h; hit rate 0.2% among 410,000; active = well fitted activation curve with a large enough effect; inconclusive = small, poorly fitted or top-dose-only effect; inactive = flat fitted curve, though single readings scatter; cell line not stated here;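 note: potency is the fitted concentration of half-maximal effect; % of control where 0% means no effect; nearly all actives have a fitted effect of over 65% in size; a mitochondrial uncoupler was the plate control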
#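 Measures PINK1 amount and localization on or inside mitochondria by immunofluorescence. Stable cells get compounds at 5 concentrations for 24 hours before fixation and staining; CCCP controls included.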
# D2 potentiator: Beta-Arrestin HTS for Positive Allosteric Modulators of the Human D2 Dopamine Receptor: Potentiators. potentiation, % (concentration not given with the values). D(2) dopamine receptor (Homo sapiens), P14416. DiscoveRx D2 beta-arrestin cells, luminescence, 90 min; 100% = 57 uM dopamine signal. hit rate 0.23% among 360,000; active = potentiation of 50% or more; inconclusive = 30% to 50%; inactive = 30% or less;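 note: compound concentration not given in the record; tested on top of an EC20 dose of dopamine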
#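 D2 cells co-treated with compound plus 50 nM dopamine (EC20) for 90 min at 37 deg C to detect potentiation. Beta-arrestin recruitment was read as enzyme-fragment luminescence after 1 h at ambient temperature. Full response was set by 57 uM dopamine.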
# Six1-Eya2 inh: qHTS Assay for Inhibitors of the Six1/Eya2 Interaction | hit rate 0.56% among 360,000 | Homeobox protein SIX1 (Homo sapiens) + Protein phosphatase EYA2 (Homo sapiens), … | AlphaScreen GST-Six1/His-Eya2 binding, biochemical; hits give low values; control for the full effect not named in the record | AID 651725, 2012 | activity change, % (no concentration beside the values); in the data active = activity change below about -65%; inconclusive = about -30% to -65%; inactive = above about -30%; note: % is set by controls: 0 for no effect and ±100 for the full control effect; compound concentration not given in the record
# Target sequence (O00167 whole entry, looked up): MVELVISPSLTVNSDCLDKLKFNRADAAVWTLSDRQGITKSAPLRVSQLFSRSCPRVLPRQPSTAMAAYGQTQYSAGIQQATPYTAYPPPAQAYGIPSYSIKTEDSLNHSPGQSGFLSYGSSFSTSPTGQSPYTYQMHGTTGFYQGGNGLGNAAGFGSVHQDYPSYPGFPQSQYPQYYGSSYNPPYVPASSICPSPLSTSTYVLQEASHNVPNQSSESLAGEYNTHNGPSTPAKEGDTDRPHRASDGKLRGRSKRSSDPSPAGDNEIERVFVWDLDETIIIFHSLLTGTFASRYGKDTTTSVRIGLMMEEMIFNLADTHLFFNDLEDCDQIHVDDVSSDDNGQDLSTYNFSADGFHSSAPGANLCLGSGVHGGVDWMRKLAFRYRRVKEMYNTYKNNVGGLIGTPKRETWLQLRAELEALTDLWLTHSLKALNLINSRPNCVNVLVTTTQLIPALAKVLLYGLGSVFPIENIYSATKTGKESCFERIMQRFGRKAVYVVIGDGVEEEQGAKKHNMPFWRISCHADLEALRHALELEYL
# Target sequence (Q15475 whole entry, looked up): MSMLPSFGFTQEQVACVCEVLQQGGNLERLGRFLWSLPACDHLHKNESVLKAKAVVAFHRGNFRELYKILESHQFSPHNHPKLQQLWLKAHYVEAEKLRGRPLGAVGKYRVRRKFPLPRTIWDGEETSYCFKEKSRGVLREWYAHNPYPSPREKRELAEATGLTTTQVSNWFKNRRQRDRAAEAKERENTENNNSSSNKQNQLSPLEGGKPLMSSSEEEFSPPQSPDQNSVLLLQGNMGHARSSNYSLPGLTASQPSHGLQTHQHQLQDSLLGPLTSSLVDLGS
#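 GST-Six1 + His-Eya2 (5X stock: 250/500 nM); Tris pH 8.0, 300 mM NaCl, 0.05% BSA, 0.02% Tween 20; GSH donor/Ni acceptor beads; 1 h 37 °C dark; AlphaScreen readout.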
# Active calls of the source: *; ? = inconclusive; / = not tested or not shown; [ ] = remark or other dose.
SMILES,TRPML1 blocker,TRPML1 agonist,D2 ag,PINK1 modulator,D2 potentiator,Six1-Eya2 inh
Cc1ccc(S(=O)(=O)NC2=NCN(CCOC(=O)c3ccccc3)CN2)cc1,1,3.2,-0.7,0.4%[38.3 µM],7,2
O=C(CN1C(=O)c2cccnc2Oc2ccc(Cl)cc21)Nc1cccc(C(F)(F)F)c1,9,1.2,/,3.5%,/,/
CCOC(=O)Cc1csc(NC(=O)c2sc3nc4ccc(C)cc4cc3c2N)n1,8,0.2,0.9,/,-6,-1
O=C(COC(=O)c1c2ccccc2cc2ccccc12)Nc1ncc(C(F)(F)F)cc1Cl,7,-0.6,0.1,13%[38.3 µM],1,36
CN1/C(=C\C=N\NC(=O)c2cccnc2)C(C)(C)c2ccccc21,3,0.5,-5.4,2.1%,-18,34
COc1ccc(C(=O)N/C(=C/c2ccc(Cl)cc2)C(=O)NCc2ccncc2)cc1,5,0.5,-5.3,-0.5%,-31,-8
CC1CN(S(=O)(=O)c2cccc(C(=O)N(Cc3nnc(-c4ccccc4Cl)o3)C3CC3)c2)CC(C)O1 (stereo not given),-6,1.8,-0.9,0.1%,-13,11
COc1ccc(Br)cc1-c1nc(C)c(C(C)=O)n1O,-25,0.1,-0.5,1.3%,-11,10
O=C(COc1cccc2ccccc12)NNC(=O)Nc1ccccc1,10,0.0,2.0,/,-22,1
O=C(CC(c1cccs1)N1Cc2ccccc2C1=O)Nc1ccc(Cl)cc1 (stereo not given),-18,1.7,/,3.8%,/,/
Cc1ccc(C(=O)Nc2cccc(C(F)(F)F)c2)cc1Nc1cnccn1,-8,0.5,-2.2,-0.1%,-29,9
NC(=O)C1CCN(C(=O)/C=C/c2cc(Br)ccc2F)CC1,-6,-0.6,-3.0,-0.5%,6,2
Cc1ccc(O)c(NC(=S)NC(=O)CC(C)C)c1,?,0.3,-5.2,-2.2%,-11,-2
O=S(=O)(Nc1cccc(S(=O)(=O)N2CCCCCC2)c1)c1ccccc1,-15,2.4,2.4,-0.4%,-2,2
CCOC(=O)COc1ccc(-c2nnc(-c3ccccc3)o2)cc1,-1,0.9,1.3,0.5%,-7,7
CCOC(=O)CC1C(=O)NCCN1C(=O)c1ccc(C)cc1 (stereo not given),9,2.3,-3.1,-0.9%,26,2
CN(C)c1oc(COc2ccc(F)cc2)nc1C#N,-1,4.4,-0.8,1.1%,-11,0
COC(=O)c1cc2occc2n1CC(=O)Nc1ccc(N(C)C)cc1,11,-0.2,/,-0.7%,/,/
CCC(C)C(=O)Nc1nc(C)c(-c2csc(Nc3cc(OC)ccc3OC)n2)s1 (stereo not given),6,-0.4,-0.6,2.2%,-7,-18
CCOc1ncccc1C(=O)OCC(=O)N(CC)c1ccccc1,11,0.7,-0.9,0.2%,-6,14
COc1ccccc1C(=O)N1C(CC(=O)Nc2cc(Cl)ccc2C)C(=O)NC2CCCCC21 (stereo not given),13,-0.6,0.1,-1.5%[38.3 µM],3,22
Fc1cccc(Cl)c1/C=N/Nc1c(Cl)cncc1Cl,3,2.9,8.6,-2.1%,14,1
O=C(c1ccco1)N1CCN(Cc2cccc(C(F)(F)F)c2)CC1,-7,1.2,42*,0.6%,29,0
Cc1cc(Br)cc(Br)c1OCC(=O)NNC(=O)Nc1ccccc1,16,0.1,-4.1,8.8%,-2,-2
COC(=O)c1scc(-c2ccc(C)cc2)c1S(=O)(=O)N1CCN(c2ccc(F)cc2)CC1,-8,0.0,/,1.2%,/,/

# Other entries follow.
SMILES,TRPML1 blocker,TRPML1 agonist,D2 ag,PINK1 modulator,D2 potentiator,Six1-Eya2 inh
O=C(Nc1cccc(-n2cnnn2)c1)c1ccc(OC(F)(F)F)cc1,7,0.4,0.2,1.3%,-30,-1
O=C(NNC(=O)OCc1ccccc1)OCc1ccccc1,-7,-1.3,-1.0,0.1%,-2,9
CCc1nc(SCc2ccccn2)c2c(=O)n(C)c(=O)n(C)c2n1,-9,-0.5,-4.6,3.8%,-4,-2
CCCNC(=O)Cn1ncc2c3ccccc3n(CCC)c2c1=O,1,3.2,/,6.0%,/,/
CCC(CC)NC(=O)CSc1ccc(S(=O)(=O)N2CCCCC2)cn1,5,-0.3,-0.3,0.7%,3,9
Cn1c(SCC(=O)N2CCN(Cc3ccccc3)CC2)nnc1-c1ccncc1,9,0.1,-1.8,0.8%[38.3 µM],-16,-1
CC(=O)Nc1ccc(NC(=O)c2cccc(S(=O)(=O)N3CCCCCC3)c2)cc1,17,0.1,0.1,13%,1,4
CCCC(=O)N(c1ccc(OCC)cc1)S(=O)(=O)c1ccc2c3c(cccc13)C(=O)N2C,-11,1.1,-1.2,4.8%,-3,8
COc1ccc(NC(=O)CN(C)S(=O)(=O)c2cccs2)cc1,15,1.0,3.4,1.6%,-27,2
O=c1c2ccccc2nc(COc2ccccc2)n1/N=C/c1cn[nH]c1-c1ccccc1,48,1.1,-1.1,22%,?,-5
Cc1c(Cl)cccc1NC(=O)C1C2C=CC(C2)C1C(=O)O (stereo not given),8,0.7,2.6,-0.5%,-3,-8
O=c1c(-c2ccc(Cl)cc2)coc2c(CN3CCOCC3)c(O)ccc12,10,-0.7,-2.0,-1.2%,5,7
Cc1cc2c(sc3ccccc32)c(C)n1,-17,-0.1,-0.2,-1.3%,-12,-5
CCOC(=O)N1CCN(C(=O)c2ccc3c(=O)n(CC4CCCO4)c(=S)[nH]c3c2)CC1 (stereo not given),-8,-0.7,-1.8,0.2%,-19,0
COc1ccc2occ(C(C)=O)c2c1,-7,0.5,1.9,1.8%[38.3 µM],-11,-1
O=C1C2C3c4ccccc4C(c4ccccc43)C2C(=O)N1c1nc(-c2ccccc2)cs1 (stereo not given),7,3.1,2.1,1.2%,-1,-13
CCc1ccccc1NC(=O)COc1ccc(C(=S)N2CCCC2)cc1,-13,-0.5,2.0,8.5%,5,5
O=C(C[n+]1ccc(C(=O)c2ccccc2)cc1)Nc1ccc(C(F)(F)F)cc1,-10,0.1,2.5,19%,-4,2
CC(=O)Nc1ccc(S(=O)(=O)NCc2ccc(C(=O)NCCN3CCCCCC3)cc2)cc1,57,0.0,8.4,1.7%,-6,-22
CC(C)(C)OC(=O)C(C)(C)O/N=C(\C(=O)O)c1csc(N)n1,-7,3.6,-2.5,1.5%,-1,3
c1ccc(CCCN2CCN(c3ccccn3)CC2)cc1,9,0.4,1.1,0.7%,0,-5
CCOc1ccccc1Nc1sc(C(=O)c2ccc(Cl)cc2)c(N)c1C#N,-7,-0.4,/,12%,/,/
CCOC(=O)CCNC(=O)N1CCCC(C(=O)c2cccc(OC(C)C)c2)C1 (stereo not given),-12,0.5,3.9,-0.7%,0,3
CCCN(c1c(C)n(C)n(-c2ccccc2)c1=O)S(=O)(=O)c1ccc(C)cc1,-4,-0.2,/,0.7%,/,/
Cc1cccc(N2C(=O)CC(N3CCN(c4ccccc4)CC3)C2=O)c1 (stereo not given),-17,-0.1,-2.2,/,-9,14

# Fetched by structure from above:
SMILES,TRPML1 blocker,TRPML1 agonist,D2 ag,PINK1 modulator,D2 potentiator,Six1-Eya2 inh
CCCC(=O)N(c1ccc(OCC)cc1)S(=O)(=O)c1ccc2c3c(cccc13)C(=O)N2C,-11,1.1,-1.2,4.8%,-3,8
CCCNC(=O)Cn1ncc2c3ccccc3n(CCC)c2c1=O,1,3.2,/,6.0%,/,/
Cc1c(Cl)cccc1NC(=O)C1C2C=CC(C2)C1C(=O)O (stereo not given),8,0.7,2.6,-0.5%,-3,-8
COc1ccc2occ(C(C)=O)c2c1,-7,0.5,1.9,1.8%[38.3 µM],-11,-1
O=c1c2ccccc2nc(COc2ccccc2)n1/N=C/c1cn[nH]c1-c1ccccc1,48,1.1,-1.1,22%,?,-5

# Remaining list, next part:
SMILES,TRPML1 blocker,TRPML1 agonist,D2 ag,PINK1 modulator,D2 potentiator,Six1-Eya2 inh
Cc1ccc(C)c(-c2csc(NC(=O)c3c(C)noc3C)n2)c1,-20,0.7,2.6,2.3%,-1,4
COC(=O)c1sccc1-n1cc2c(c1-c1ccccc1)c(=O)n(C)c(=O)n2C,-9,-0.5,1.4,4.4%,-2,-17
CCCNC(=O)C1CCN(S(=O)(=O)c2cccs2)CC1,1,-0.1,-3.3,-0.3%,-1,4
C#Cc1ccc([C@H]2C=C(C(=O)N3CCOCC3)O[C@@H](OCc3ccc(CO)cc3)C2)cc1,-11,0.4,-3.9,-1.6%,-4,7
CCOC(=O)c1[nH]c(COC(=O)C2CC(=O)N(Cc3ccccc3)C2)c(C(=O)OCC)c1C (stereo not given),-5,-0.7,2.8,2.6%,0,-3
CCc1ccccc1NC(=O)CN(C)C(=O)Cn1cnc2ccc(Cl)cc2c1=O,25,0.7,0.3,-0.8%,-1,2
Cc1nnc(SCC(=O)Nc2cccc([N+](=O)[O-])c2)n1CC1CCCO1 (stereo not given),-5,1.4,-0.8,0.1%,-4,-3
CC(C)CNC(=O)c1cccc(NC(=O)c2ccccc2-c2ccccc2C(=O)O)c1,-10,-0.4,3.1,0.2%,2,1
O=C(c1ccco1)N1CCN(S(=O)(=O)c2cccc3nsnc23)CC1,-2,0.0,-1.7,-0.7%,2,1
CCOCCCn1c(SCC(=O)Nc2ccccc2)nc2ccccc2c1=O,7,-0.4,-2.5,1.9%,-11,1
CN(C)C(=O)CCCCCCCCC(=O)N(C)C,15,-0.5,4.2,1.0%,3,6
COc1cc(CC(NC(C)=O)C(=O)NC2CCN(c3nc(OC)nc(OC)n3)CC2)cc(OC)c1 (stereo not given),8,0.7,-1.7,1.1%,-2,7
COC(=O)c1c(NC(=O)CSc2nnc(-c3ccco3)n2C)sc(C)c1C,40,-0.2,-4.9,-0.9%,-13,-1
CCOc1ccc(CNC(=O)COc2cc(=O)n(C)c3ccccc23)cc1,-11,-1.0,/,1.9%,/,/
COC(=O)[C@@]12OC[C@]34[C@H]([C@@H](O)[C@@H]1O)[C@@]1(C)C(=O)C(O[C@@H]5OC(CO)[C@@H](O)[C@@H](O)[C@@H]5O)=C[C@@H](C)[C@@H]1C[C@H]3OC(=O)[C@H](OC(=O)/C=C(\C)C(C)(C)OC(C)=O)[C@@H]24 (stereo not given in full),-12,-0.2,-1.2,-0.7%,-5,1
Cc1ccnc(NC(=O)c2cc(-c3ccc(Cl)s3)nc3ccccc23)c1,5,-0.2,-1.1,?,-1,4
O=C(c1ccc2ccccc2n1)N1CCN(S(=O)(=O)c2ccc(Cl)cc2)CC1,18,-0.1,-1.5,0.9%,-6,-10
COc1ccc(NC(=O)Cc2csc(NC(=O)Nc3ccccc3OC)n2)cc1,-6,0.6,5.1,1.2%,-10,-23
